Assay outcomes from PubChem.
HSD17B inhib: qHTS Assay for Inhibitors of HSD17B4, hydroxysteroid (17-beta) dehydrogenase 4; 3-hydroxyacyl-CoA dehydrogenase type-2 (Homo sapiens), Q99714; recombinant HSD17B10, NADH fluorescence kinetic; many of its hits are not listed in these tables; Potency, µM (series often up to 57.1 µM), inactives show at the highest dose activity change, negative = inhibition, actives largely listed as inhibitors; actives 7.6% (n = 75,000); active = well fitted inhibition curve with a large enough effect; inconclusive = small, poorly fitted or top-dose-only effect; inactive = no such curve, though single readings can be large or run the other way;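 also: the protocol describes HADH2 (HSD17B10) and not the HSD17B4 of the title; nearly all actives have a fitted effect of over 70% in size; most hits overshoot -100% by far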
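Activity followed as NADH fluorescence increase (ex 360, em 450 nm) every 30 seconds for 4 min, using final 90 uM beta-hydroxybutyryl CoA and 1 mM NAD+. Recombinant His-tagged enzyme, 20 nM, pH 9.0 Tris buffer, 15 min compound preincubation.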
The depositor's hits bear a star; u = inconclusive; [ ] = remark or other dose. % is scaled to controls: 0 for no effect and ±100 for the full control effect; potency is read from the fitted curve at half-maximal effect. A portion of the library; rates above refer to the full screens.

structure,HSD17B inhib
CC(=O)c1sc(Nc2ccccn2)nc1C,-20.4%
O=C1CC(c2ccc(O)c(O)c2)Oc2cc(O)cc(O)c21 (stereo not drawn),u
Cc1cc(C)n(-c2ncc(-c3ccccc3)nn2)n1,-1.4%
O=S(=O)(c1ccc2nc(Cc3ccccc3)[nH]c2c1)N1CCOCC1,6.3%
Cc1ccc(S(=O)(=O)c2nc(-c3ccccc3)oc2NCCN2CCOCC2)cc1,0.1%
CCOc1ccc(C2c3c(oc4cc(C)c(C)cc4c3=O)C(=O)N2CCCN(C)C)cc1OC (stereo not drawn),7.7%
Cc1cc(C)n(-c2ccc(C(=O)NCc3cccs3)cc2)n1,13.5%
CC1(C)CC(=O)c2cc(C(=O)NC3CCSC3=O)c(=O)n(-c3ccccc3)c2C1 (stereo not drawn),25.1µM*
COc1ccc(-n2c(N)c(C(=O)NCC3CCCO3)sc2=S)cc1 (stereo not drawn),0.0%
C/C(Cl)=C\Cn1c(NCCc2ccccc2)nc2c1c(=O)n(C)c(=O)n2C,14.5%
COc1ccc(C2C(C(=O)O)c3ccccc3C(=O)N2C)cc1Br (stereo not drawn),3.5%
CCCCCn1c(N2CCOCC2)nc2c1c(=O)n(CC(N)=O)c(=O)n2C,4.3%
CCc1ccc(C2=Nn3c(nnc3-c3cccs3)SC2)cc1,4.5%
C#CCCCO/N=C1/C[C@@H](O)[C@@H](O)[C@@H]2[C@@H]3C(=O)N(c4cccc(Oc5ccccc5)c4)C(=O)[C@H]3CC[C@H]12,4.8%[11.4 µM]
COc1cc2c(cc1OC)-c1cc(NCc3ccccn3)nc(=O)n1CC2,31.6µM*
CC(C)(C)n1nnnc1C(c1ccc(C#N)cc1)N1CCCC2(CCCCC2)C1 (stereo not drawn),-1.6%
Cc1ccccc1-n1c(Cn2c(=O)sc3ccccc32)nnc1SC(C)C,-17.0%
CCCCNC(=O)CCn1c(=O)c2ccccc2n(CC(=O)N2CC(C)CC(C)C2)c1=O (stereo not drawn),0.9%
O=C(c1csc2c1CCCC2)N1CCCCC1,6.2%
COc1cc2[nH]c3c(=O)n(CCN4CCCCC4)cnc3c2cc1OC,25.1µM*
Cc1ccc(NC(=O)CN(C)S(=O)(=O)c2cnc[nH]2)cc1C,12.7%
CCN1CCC[C@@H]1CNC(=O)c1c(O)c(Cl)cc(Cl)c1OC,-3.4%
Cc1ccc(N2C(=O)C3C4C=CC(C4)C3C2=O)cc1 (stereo not drawn),1.4%
O=S1(=O)CC(O)C(Nc2ccccc2Cl)C1 (stereo not drawn),4.4%
O=C(Nc1ccccc1)N(Cc1cccnc1)Cc1ccco1,-6.8%
Cc1ccccc1-c1nnn(CC(=O)NCc2ccc3c(c2)OCO3)n1,-0.2%
COc1ccc(Oc2ncc3nc(-c4cc(F)cc(F)c4)c(=O)n(C)c3n2)cc1,-21.2%
CC(=O)Nc1c(C(=O)c2ccc(F)cc2)oc2ccccc12,0.6%
Cc1nnc(SCC(=O)N2CCN(Cc3ccccc3)CC2)s1,-29.8%
CC(C)(C)C1CCC2(CC1)CCN(CCCN1CCOCC1)CC2,4.9%[11.4 µM]

Ordered by molar mass (highest first): some entries from above
structure,HSD17B inhib
COc1ccc(Oc2ncc3nc(-c4cc(F)cc(F)c4)c(=O)n(C)c3n2)cc1,-21.2%
Cc1ccc(NC(=O)CN(C)S(=O)(=O)c2cnc[nH]2)cc1C,12.7%
Cc1ccc(N2C(=O)C3C4C=CC(C4)C3C2=O)cc1 (stereo not drawn),1.4%

Next records
structure,HSD17B inhib
Cc1c(C(=O)Nc2ccc(C(=O)O)cc2)cnn1C,-2.3%
NC[C@@H]1O[C@@H](O[C@H]2[C@H](O)[C@H](O[C@@H]3O[C@H](CO)[C@@H](O)[C@H](N)[C@@H]3O)[C@@H](N)C[C@H]2N)[C@H](N)C[C@@H]1O,5.6%[25.6 µM]
Cc1cc(-n2c(C)cc(C(=O)CSc3ccc4c(c3)OCCO4)c2C)no1,-13.5%
C=C(C)COc1ccc(-c2n[nH]c(C)c2Oc2ccccc2OC)c(O)c1,u
CNC(=O)CSCCn1c(SCC(=O)NC)nc2ccccc2c1=O,4.7%
COc1ccc(NCc2ccc(OC)c(OC)c2)cc1,1.0%
Cc1cc(C)nc(N2CCCC(C(=O)Nc3nnc(C)s3)C2)n1 (stereo not drawn),-21.0%
CCOc1ccccc1C(=O)NCC(=O)OCC(=O)NCCc1ccc(S(N)(=O)=O)cc1,-0.8%
CCOC(=O)C1CCN(Cc2ccc(OC)cc2OC)CC1,-3.9%
Cc1oc(C)c2c(=O)ccc3c(c12)OC(N)=C(C#N)C3c1ccccc1 (stereo not drawn),20µM*
COc1ccccc1-n1nnnc1SCC(=O)NC1CCCC1,-2.3%
N#Cc1cccc(NC(=O)CCC2CCCC2)c1,0.5%
COc1cc(NC(=O)N2CCOCC2)cc(OC)c1,5.9%
CC(CCc1ccccc1)NC(=O)CSc1nc(N)cc(N)n1 (stereo not drawn),2.3%
c1ccc(-c2oc3ncnc(NCCN4CCOCC4)c3c2-c2ccccc2)cc1,31.6µM*
CCC1Oc2ccccc2N(CC(=O)NCCN2CCc3ccccc3C2)C1=O (stereo not drawn),0.9%
COC(=O)C1C(C)OC(=O)NC1c1ccccc1 (stereo not drawn),2.0%[11.4 µM]
Cc1cccc(C2c3c(n(C)c(=O)n(C)c3=O)N=C3c4ccccc4C(=O)C32)c1 (stereo not drawn),-12.8%
CCC1CCCCN1CCCNC(=O)CC1Oc2ccccc2NC1=O (stereo not drawn),1.5%
CCCCOc1nc(N)nc(-c2ccccc2)n1,2.8%
O=C(c1cc2ccccc2o1)c1cccs1,-14.9%
COc1ccc(CC(=O)Nc2nncs2)cc1OC,5.0%
Cc1noc(C)c1C(=O)N1CCC2(CC1)CN(C(=O)Nc1cccc(F)c1)C2,7.2%
COc1cc(CCC(=O)OCc2nnc(-c3ccccc3)o2)cc(OC)c1OC,3.6%
S=C(NCC1CCCO1)n1nnc2ccccc21 (stereo not drawn),-2.8%
CCOc1ccc(-c2nn3c(-c4ccccc4)nnc3s2)cc1,-17.9%
Cc1sc(NC(=O)c2ccco2)nc1-c1ccc2c(c1)CC(C)N2C(=O)C1CC1 (stereo not drawn),u
O=C(NC1CCCCCC1)C1CCCN1S(=O)(=O)c1cccc2cccnc12 (stereo not drawn),-0.2%
O=C(COc1ccc(S(=O)(=O)NC2CCCCC2)cc1)Nc1ccc2c(c1)OCCO2,-0.7%
COC(=O)CN1C(=O)C2(C(C#N)=C(N)Oc3c2c(C)nn3-c2ccccc2)c2ccccc21 (stereo not drawn),-9.3%
O=c1cccccc1NCc1ccccc1,-3.6%
Cc1cccc(N2CC34C=CC(O3)C(C(=O)O)C4C2=O)c1 (stereo not drawn),2.6%
CCN1C(=O)[C@H]2[C@H]3[C@H](O)[C@H](O)C/C(=N/O[C@@H](C)c4cc(-c5c(C)cc(C)cc5C)no4)[C@@H]3CC[C@@H]2C1=O,0.1%[11.4 µM]
CCOCCn1cnc2sc(C(=O)NCC(=O)OCC)c(C)c2c1=O,4.8%
CC(C)CO/N=C1/C[C@@H](O)[C@@H](O)[C@@H]2[C@@H]3C(=O)N(Cc4ccc5c(c4)OCO5)C(=O)[C@H]3CC[C@H]12,2.1%[11.4 µM]
Nn1c(SCC(=O)Nc2ccc(F)cc2F)nnc1C1CCCCC1,8.1%
CN(Cc1ccccc1)c1nc2c(c(=O)n(C)c(=O)n2C)n1CCSc1ncccn1,u
COc1cc2c(cc1O)CCC1C2CC[C@@]2(C)C1CC[C@@H]2O (stereo partly drawn),120.4%[activator]
O=C(O)Cn1nc(C(F)(F)F)c2c1CCC2,7.7%
CCOc1ccc(-c2cnc(SCC(N)=O)nc2N)cc1,-1.4%
CCc1nnc(NS(=O)(=O)c2ccc(NS(=O)(=O)c3ccccc3)cc2)s1,-0.5%
C/C(=N\O)C(C)(C)NC(=O)Nc1ccc(Cl)cc1,6.5%
Cc1nn(C)c(C)c1S(=O)(=O)N1CCCC(C(=O)N2CCN(c3ccc(Cl)cc3)CC2)C1 (stereo not drawn),5.5%
Cc1cnc(C(=O)Nc2cccc(-c3nnc4n3CCCCC4)c2)cn1,5.3%
CCOc1ccccc1-c1nc(-c2cc3ccccc3nc2OC)no1,u
CC1CCCCN1c1nnc(NC(=O)Cn2c(=O)oc3ccccc32)s1 (stereo not drawn),-1.6%
O=C(NCCN1CCOCC1)c1cc(S(=O)(=O)NCCCN2CCCC2=O)ccc1Cl,13.3%
CCCc1cc(C(=O)Nc2sc(C)c(C)c2C(=O)OCC)no1,31.6µM*
CCn1cc(C(=O)Nc2cccc(C(=O)OC)c2)c(=O)c2ccc(C)nc21,13.0%
Cc1ccccc1C1CC(c2ccccc2)Nc2ncnn21 (stereo not drawn),9.1%

Some of the entries so far, as labelled records.
> CCC1CCCCN1CCCNC(=O)CC1Oc2ccccc2NC1=O (stereo not drawn)
  HSD17B inhib = 1.5%

> CC1(C)CC(=O)c2cc(C(=O)NC3CCSC3=O)c(=O)n(-c3ccccc3)c2C1 (stereo not drawn)
  HSD17B inhib = 25.1µM*

Four records picked at random from the list so far, as already listed:
structure,HSD17B inhib
Cc1cnc(C(=O)Nc2cccc(-c3nnc4n3CCCCC4)c2)cn1,5.3%
CCn1cc(C(=O)Nc2cccc(C(=O)OC)c2)c(=O)c2ccc(C)nc21,13.0%
C/C(=N\O)C(C)(C)NC(=O)Nc1ccc(Cl)cc1,6.5%
O=C(NCCN1CCOCC1)c1cc(S(=O)(=O)NCCCN2CCCC2=O)ccc1Cl,13.3%

Continued.
structure,HSD17B inhib
C=CCn1c(Sc2nncn2C)nc2c1c(=O)[nH]c(=O)n2C,-5.2%
COc1ccccc1N1CCN(CCCNc2c(C)c(=O)n(C)c(=O)n2C)CC1,7.8%
COc1ccc(NC(=O)CN2CC(c3ccccc3)CC2=O)cc1OC (stereo not drawn),2.9%
OC1CCCCC1,0.6%
COc1ccc(NC(=O)CSc2c(C)nn(-c3nnc(C)c(=O)[nH]3)c2C)cc1,2.9%
CCN(c1ccccc1)S(=O)(=O)c1ccc(F)cc1C,0.5%
CCN(CC)C(=O)c1cccc(-c2ccc(OC)cc2)c1,-9.2%
COc1ccc(Cl)cc1NC(=O)CN1CCC(n2nnc3ccccc32)CC1,7.6%
CCCC[C@@H]1C[C@H]1C(NC(=O)c1ccc(C(F)(F)F)cc1)c1ccc(C(=O)OC)cc1 (stereo partly drawn),-0.5%
O=C(NC1CCS(=O)(=O)C1)c1cccc(S(=O)(=O)N2CCOCC2)c1 (stereo not drawn),1.8%
CC(=O)Nc1ccc(C)cc1,4.3%
Cc1nc2nc(-c3ccco3)nn2c(C)c1Cl,31.6µM*
CC(C)=C(C#N)c1nc2ccccc2s1,-7.9%
CCOC(=O)C1CCN(Cc2nc3ccc(Cl)cc3n2CCO)CC1,-4.2%
NC(=O)CSC1=Nc2ccccc2C2=NC(CC(=O)NCc3cccs3)C(=O)N12 (stereo not drawn),u
Cc1onc(-c2ccccc2Cl)c1C(=O)NC1CCS(=O)(=O)C1 (stereo not drawn),1.7%
Cc1cc(N2CCN(S(=O)(=O)Cc3ccccc3)CC2)n2ncnc2n1,-0.1%
O=C(c1ccc2c(c1)OCCO2)C1CCN(C(=O)c2ccc(F)c(F)c2)CC1,5.3%
Cc1ccc(S(=O)(=O)c2c(N)n(/N=C/c3ccco3)c3nc4ccccc4nc23)cc1,4.9%
COc1ccccc1-n1nnnc1SCC(=O)Nc1cc(C)on1,10.9%
Cn1cccc1Cc1nnc(SCC(=O)Nc2nc3ccccc3s2)n1CCc1ccccc1,-14.1%
Clc1cccc(Cl)c1Cn1cnc(=NCc2ccco2)c2[nH]cnc21,4.0%
CCOC(=O)c1cc(NC(=O)CSCCO)ccc1Cl,-3.5%
